H5N1 antiviral: antiviral screen in MDCK cells, H5N1 avian flu | cytopathic effect, luminescence, 72 h; stronger effect = higher value; no value below 0 was filed and about half of the inactive calls have no number; reference of the scale not given here | inhibition, % at 50 µM | actives 0.07% (n = 96,000) | AID 740; in the data active = inhibition above about 25%
* = called active by the depositor; i = inactive. The list is partial, so the mix of outcomes need not match the whole.

Sample of the layout (6 entries):
canonical_smiles	H5N1 antiviral
Clc1ccc(-c2ccc(/C=N/Nc3nncc(-c4ccccc4)n3)o2)cc1	i
O=c1/c(=C\c2cccnc2)sc2nc3ccccc3n12	1.4
Cc1ccc(/C=C/c2ccc(=O)n(Cc3ccccc3Cl)n2)cc1	0.1
O=C1CCC(C(=O)O)(c2ccccc2)C1 (stereo unspecified)	0.0
Cc1ccc(/C=N/NC(=O)c2cc3c(ccc4ccccc43)o2)cc1[N+](=O)[O-]	0.1
COc1ccc(OCC(=O)Nc2ccc3c(c2)nc(CN2CCCC2)n3C)cc1	i

Main list, repeating the preview:
canonical_smiles	H5N1 antiviral
Clc1ccc(-c2ccc(/C=N/Nc3nncc(-c4ccccc4)n3)o2)cc1	i
O=c1/c(=C\c2cccnc2)sc2nc3ccccc3n12	1.4
Cc1ccc(/C=C/c2ccc(=O)n(Cc3ccccc3Cl)n2)cc1	0.1
O=C1CCC(C(=O)O)(c2ccccc2)C1 (stereo unspecified)	0.0
Cc1ccc(/C=N/NC(=O)c2cc3c(ccc4ccccc43)o2)cc1[N+](=O)[O-]	0.1
COc1ccc(OCC(=O)Nc2ccc3c(c2)nc(CN2CCCC2)n3C)cc1	i
CCC(C)(C(=O)NC1CCCCC1)N(C)C(=O)c1ccc2c(c1)OCO2 (stereo unspecified)	0.3
Cn1c(CNS(=O)(=O)c2ccc(F)cc2)n[nH]c1=S	2.1
O=C(Nc1ncc(Cc2ccccc2)s1)C1COc2ccccc2O1 (stereo unspecified)	0.2
CO/N=C/NC(=O)c1c(OC)ccnc1Oc1cccc(C(F)(F)F)c1	i
Cc1c(-c2ccccc2)c(P(=O)(N2CCOCC2)N2CCOCC2)c2ccccn12	0.8
CC(C)NC(=O)c1cc2nc(-c3ccco3)cc(C(F)(F)F)n2n1	2.2
Cc1ccc(-n2c(Cc3cccn3C)nnc2SCC(=O)N2CCN(c3ccccc3)CC2)cc1	2.7
c1ccc(-n2ncc(-c3nn[nH]n3)n2)cc1	i
CC1CCN(C(=O)CSc2nc3ccccc3s2)CC1	0.2
Cc1snc(SCC(=O)c2ccc(Cl)cc2)c1C#N	1.4
CC(OC(=O)CCCN1C(=O)c2ccccc2C1=O)C(=O)Nc1ncc(Cl)cc1Cl (stereo unspecified)	i
C/C(O)=C(/C#N)c1nc2ccccc2[nH]1	2.1
Cn1c(C2=C(O)CN(c3ccc4c(c3)OCCO4)C2=N)nc2ccccc21	1.7
Cc1ccc(NC(=O)NC(=O)CN2C(=O)NC3(CCc4ccccc43)C2=O)c(C)c1 (stereo unspecified)	i
O=C(N/N=C/c1ccncc1)c1cc([N+](=O)[O-])cc([N+](=O)[O-])c1O	0.5
Cc1sc2nc(NCCO)[nH]c(=O)c2c1C	3.0
CC1(NC(=O)C23CC4CC(CC(C4)C2)C3)CCS(=O)(=O)C1 (stereo unspecified)	i
Cc1ccc2[nH]c(C)c(/C=N/Nc3nc4ccccc4s3)c2c1	i
CCOC(=O)c1sc(NC(=O)CSc2nnnn2-c2ccc(C)cc2C)nc1C	i
O=C(Cc1ccc(-n2cccc2)cc1)NC1CCCCC1	1.4
O=c1nc2n(c3c1oc1ccccc13)Cc1ccccc1-2	3.0
COC(=O)C(CC(=O)Nc1cc(C)ccc1C)Nc1ccccc1OC (stereo unspecified)	1.7
COc1ccc(Cn2nnnc2C(c2ccccc2OC)N2CCC(C(N)=O)CC2)cc1 (stereo unspecified)	1.5
CCC(c1nnnn1Cc1ccco1)N1CCC(C(N)=O)CC1 (stereo unspecified)	i
CSC1=N/C(=C\c2ccc(C)cc2)C(=O)S1	0.1
CCNC(=S)NNC(=O)c1cc(-c2cccc(C)c2)nc2ccccc12	i
CC(C)(C)S(=O)(=O)c1ccccc1C(=O)O	i
COc1ccccc1NC(=O)C(C)N1CCN(C/C=C/c2ccccc2)CC1 (stereo unspecified)	i
Cc1ccc(S(=O)(=O)N[C@H](C(=O)N2CCC(C(=O)N3CCC[C@H]3C(=O)O)CC2)C(C)C)cc1	0.8
CCOc1ccc2nc(NC(=O)CSC3=NCCS3)sc2c1	i
CCOC(=O)C1C(=O)NC(SC)=C(C#N)C1c1ccccc1F (stereo unspecified)	i
Cc1ccc(S(=O)(=O)N2CCOCC2)cc1C(=O)OCC(=O)Nc1ccc2c(c1)OCO2	2.9
Cc1cccc(OCCCCCn2ccnc2)c1	2.2
Cc1nc(NCC2CCCO2)c2oc3ccccc3c2n1 (stereo unspecified)	i
O=C(NCc1ccc(F)cc1)C1CCC(=O)N1CCc1ccccc1 (stereo unspecified)	1.2
CCN=c1scc(C)n1/N=C/c1ccc(O)c(O)c1O	2.2
COc1ccccc1CN1CC(C(=O)NCc2cccnc2)CC1=O (stereo unspecified)	0.7
O=C(c1ccccc1)c1cc2ccccc2o1	0.5
CSCCC(NC(=O)OC(C)(C)C)C(=O)NC(C(=O)NC(CC(C)C)C(N)=O)C(C)C (stereo unspecified)	i
CNc1nc(SC)nc2ccsc12	i
Cc1cc(N2C(=O)C(=O)/C(=C(/O)c3ccc(Cl)cc3)C2c2cccc(Br)c2)no1 (stereo unspecified)	0.7
CCOc1ccc(OCC)c(NC(=O)C2COc3ccccc3O2)c1 (stereo unspecified)	i
CCOc1ccccc1NC(=O)c1ccoc1C	3.3
COc1cccc2cc(C(C)N(CCCN3CCOCC3)C(=O)Nc3ccccc3)oc12 (stereo unspecified)	i

4 entries from above, field by field.
Cc1ccc(S(=O)(=O)N2CCOCC2)cc1C(=O)OCC(=O)Nc1ccc2c(c1)OCO2
  H5N1 antiviral = 2.9

O=C(NCc1ccc(F)cc1)C1CCC(=O)N1CCc1ccccc1 (stereo unspecified)
  H5N1 antiviral = 1.2

COC(=O)C(CC(=O)Nc1cc(C)ccc1C)Nc1ccccc1OC (stereo unspecified)
  H5N1 antiviral = 1.7

CCN=c1scc(C)n1/N=C/c1ccc(O)c(O)c1O
  H5N1 antiviral = 2.2

(more compounds)
canonical_smiles	H5N1 antiviral
Cc1nc2ccccc2c2oc(C(=O)N3CCN(C4CCCCC4)CC3)cc12	1.4
CN(C)/C=C1\C=C(c2ccccc2)OC1=O	2.0
CCOC(=O)CSC1=C(C#N)C(c2ccccc2)C(C(C)=O)=C(C)N1 (stereo unspecified)	0.2
O=C(Cn1cnc2c(cnn2-c2ccccc2)c1=O)OCc1ccccc1	1.0
COC(=O)c1ccc(C(=O)OC)c(NC(=O)COC(=O)C2CCC(C(C)(C)C)CC2)c1 (stereo unspecified)	i
COC(=O)c1c(NC(=O)C2c3ccccc3Oc3ccccc32)sc(C)c1C	i
CCn1c(CNc2ccccc2Cl)nnc1SCC(=O)OC1CCCCC1	0.1
CSC1=C(C#N)C(c2ccccc2Cl)C2=C(N1)c1ccccc1C2=O (stereo unspecified)	0.1
C=CCN=C(NC#N)SCCc1ccccc1	4.2
COCCCN1C(=O)c2ccc(C(=O)Nc3ccc(OC)cc3OC)cc2C1=O	i
N/C(=N\c1nc2ccccc2o1)NC(=O)C(Cc1ccccc1)N1C(=O)c2ccccc2C1=O (stereo unspecified)	i
O=[N+]([O-])c1ccc(C2CCCC/C2=N/OCc2ccccc2F)c([N+](=O)[O-])c1 (stereo unspecified)	2.5
O=C(NCc1cccnc1)C1c2ccccc2C(=O)N1C1CCCCCC1 (stereo unspecified)	0.4
COCCN1C(=O)c2oc3ccccc3c(=O)c2C1c1cccc(O)c1 (stereo unspecified)	i
Cc1cccc(NC(=O)NCCc2c[nH]c3ccccc23)c1	0.7
CC(=O)N1C(=O)C(=C2C=C(C)OC(C)=C2)c2ccccc21	0.9
CCN1CCC2(CC1)C(C#N)=C(N)Oc1c2sc2nc(C)cc(C)c12	0.1
CCCc1[nH]nc2c1C(/C(C)=C/c1ccccc1)C(C#N)=C(N)O2 (stereo unspecified)	i
CCOc1cc(CNCCO)c(Cl)cc1OCC(=O)NCCc1ccccc1	i
COc1ccc(NC(=S)Nc2ccccc2F)c(OC)c1	i
CCCCn1c(SCC(N)=O)nc2ccc(N3CCOCC3)cc2c1=O	1.4
CC(C)CCn1c(S(=O)(=O)O)nc2ccccc21	i
COc1c(S(=O)(=O)N2CCN(c3ccc(F)cc3)CC2)ccc(Cl)c1Cl	0.4
COC(=O)Cc1n[nH]c(=O)c2ccccc12	0.4
Cc1cc([N+](=O)[O-])ccc1NCc1ccc2ccccc2c1	i
O=C(CCN1C(=O)C2C3C=CC(C3)C2C1=O)Nc1ccc2ncccc2c1 (stereo unspecified)	0.8
O=C(CSc1ccccn1)N1CCN(c2cccc(Cl)c2)CC1	i
CC(=NCCc1ccccc1)C1=C(O)COC1=O	0.2
Clc1ccc2nc(CN3CCCCCC3)cn2c1	i
O=C(Cn1c(C(=O)NCCCN2CCOCC2)cc2sccc21)c1ccccc1	i
CN1CCN(CCCNC(=O)c2ccc3c(c2)N(Cc2ccccc2)CCS3)CC1	i
CCCn1c(=C(C#N)C#N)s/c(=C2\C=Cc3ccccc3N2CC)c1=O	0.1
Cc1onc(-c2ccccc2)c1C(=O)N1CCCc2ccccc21	0.9
CCN(CC)S(=O)(=O)N1CCC(C(=O)NC2CCCC2)CC1	0.9
COc1ccc(CNC(=O)Nc2ccc(OC)cc2)cc1	i
COCCNC(=O)c1ccccc1-c1ccccc1C(=O)O	i
Cc1cc(Nc2ccc(C(C)C)cc2)n2ncnc2n1	i
COc1ccc(N(CC(=O)N/N=C/c2ccco2)S(=O)(=O)c2ccccc2)cc1	1.2
CCC(Sc1nccn1C)C(=O)Nc1cccc2ccccc12 (stereo unspecified)	0.8
Cn1nc(C(F)(F)F)c(C(=O)Nc2ccc(F)cc2F)c1Sc1cccc(Cl)c1	i
COC(=O)c1ccc(NC(=O)CSc2ccccn2)cc1	i
CC(C)N1CCc2c(sc(NC(=O)c3ccc(S(=O)(=O)N4CCOCC4)cc3)c2C(N)=O)C1	3.8
COc1cc(/C=C(/C(=O)c2cccs2)c2nc3ccccc3[nH]2)cc(OC)c1O	0.9
CC1(C)Cc2c(c(-c3ccccc3)nc(N3CCOCC3)c2C(N)=O)CO1	0.1
COc1ccc(-c2[nH]ncc2/C=N\NS(=O)(=O)c2ccccc2)cc1OC	1.8
CC(C)(C)S(=O)(=O)c1cnc2c(-c3ccc(F)cc3)cnn2c1N	0.1
COc1ccc(OC)c(C(=O)COC(=O)CNC(=O)C2CCCCC2)c1	i
CCOC(=O)C1CCCN(C(=O)c2sc3nc(C)nc(N4CCOCC4)c3c2C)C1 (stereo unspecified)	1.5
COc1ccc(-n2c3c(cc(C(=O)N4CCN(CCO)CC4)c2=O)C(=O)CC(C)(C)C3)cc1	i
COc1ccc(CC(=O)OCC(=O)NC(=O)NC2CCCCC2)cc1	0.1

(next part)
canonical_smiles	H5N1 antiviral
COC(=O)c1ccn(C(=O)c2ccc(Cl)cc2)n1	1.7
O=C(Nc1ccccc1)NC1CC2CCC(C1)N2 (stereo unspecified)	0.1
CCc1nnc(NC(=O)CSc2ccc(-c3nc4ccccc4[nH]3)cn2)s1	i
NS(=O)(=O)c1ccc(CCNC(=O)c2ccc(S(=O)(=O)N3CCCCC3)cc2)cc1	i
COc1ccc(NC(=O)c2ccco2)cc1NC(=O)c1ccco1	2.5
CC(C(=O)NC1CCCCCC1)N(c1ccccc1)S(C)(=O)=O (stereo unspecified)	0.1
O=S(=O)(Cc1ccccc1Cl)N1CCN(Cc2ccc3c(c2)OCO3)CC1	0.4
Cc1[nH]ccc(=O)c1OCc1ccccc1	i
O=C(c1cccs1)N1CCC(c2nc3c(nnn3Cc3ccccc3)c(=O)[nH]2)CC1	i
CCOC(=O)NC1(C(F)(F)F)C(=O)N(Cc2ccccn2)C2=C1C(=O)CC(C)(C)C2 (stereo unspecified)	0.0
CCOC(=O)c1nc(S(C)(=O)=O)ncc1Cl	i
COc1ccc(C2C(C#N)=C(N)Oc3c2sc2nc(C)cc(C)c32)cc1 (stereo unspecified)	3.0
Cc1ccc(NC(=S)NCCC(c2ccccc2)c2ccccc2)c(C)c1	0.0
Cc1cccc(C(=O)NC(NCc2ccco2)C(Cl)(Cl)Cl)c1 (stereo unspecified)	i
O=C(C(=O)N1CCCc2ccccc21)c1c[nH]c2ccccc12	i
COC1CCCCC1Nc1cccc(SC)c1 (stereo unspecified)	1.2
CCOC(=O)Cc1csc(NC(NC(=O)CC)(C(F)(F)F)C(F)(F)F)n1	0.2
COc1ccc(-c2noc(CN3CCCCC3)n2)cc1OC	0.5
COc1ccc2cc3cc(C(=O)NCCc4ccc(OC)c(OC)c4)oc3nc2c1	0.3
O=C(CS(=O)(=O)c1cccc(C(F)(F)F)c1)Nc1ccccc1Cl	i
O=C(Nc1ccc(-c2nc3ncccc3o2)cc1)c1ccco1	0.2
CCOc1ccc(CN(CCO)CCO)cc1[N+](=O)[O-]	2.4
COc1ccc(C(=O)CSc2nnc(-c3cccnc3)n2Cc2ccco2)cc1	2.4
COc1ccc(OC)c(NC(=O)C(CC(=O)O)Cc2ccc(Cl)cc2)c1 (stereo unspecified)	i
Cc1ccc(S(=O)(=O)Nc2ccccc2CNc2c(C)n(C)n(-c3ccccc3)c2=O)cc1	i
COc1ccc(C(=O)c2oc3nc(C)cc(C)c3c2N)cc1	0.3
Cc1ccc(N(CC(=O)NCc2ccco2)S(=O)(=O)c2ccccc2)cc1	0.9
CCCCNc1nc(-c2ccccc2)nc(-n2ccnc2)n1	i
